Source: PubChem BioAssay (National Center for Advancing Translational Sciences (NCATS))
NS1 inh – inhibitors of influenza NS1 protein function. S. cerevisiae slowed by influenza A NS1, growth recovery by OD600. 0.4% of 270,000 active. Potency, µM (top dose mostly 46.1 µM), without a hit: at the top dose activity, positive = more growth. AID 2326; note: actives are rising curves; nearly all actives have a fitted effect of over 50% in size
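S. cerevisiae expressing influenza A NS1, grown in glucose, washed, then diluted 1:100 into pH 6.0 -URA galactose medium with 23 nl compound. Growth recovery read as OD600; NS1-free strain serves as control.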
Lassa entry inh – blocks Lassa virus binding to or entry into cells | Potency, µM (doses to about 37.9 µM), inactives show at the top dose activity change, negative = inhibition, usual class: inhibitors | 1.2% of 300,000 active | Lassa virus pseudotype entry inhibition, cell reporter; control for the full effect not named in the record; active means well fitted inhibition curve with a large enough effect; inconclusive means small, poorly fitted or top-dose-only effect, or effect the other way; inactive means flat fitted curve, though single readings scatter; tested in HEK293 cells; note: % is set by controls: 0 for no effect and ±100 for the full control effect; nearly all actives have a fitted effect of over 50% in size; luciferase read-out
MARV entry inh – inhibitors of Marburg virus binding or cell entry; Marburg virus pseudotyped entry inhibition, cell reporter; control for the full effect not named in the record; about a third of the inactives were read at about 46 µM; AID 540276; Potency, µM (titrated, usually from 37.8 µM), inactives show at the highest dose activity change, negative = inhibition, actives largely listed as inhibitors; 1.8% of 300,000 active; active = well fitted inhibition curve with a large enough effect; inconclusive = small, poorly fitted or top-dose-only effect, or effect the other way; inactive = flat fitted curve, though single readings scatter; tested in HEK293 cells; about a fifth of its hits are not listed in these tables; note: % is set by controls: 0 for no effect and ±100 for the full control effect; luciferase read-out
SARS PLpro yeast – inhibitors of SARS-CoV papain-like protease in yeast; 0.19% of 330,000 active; Potency, µM (highest dose often 32.9 µM), for the others: at the top dose activity, positive = growth rescue; S. cerevisiae expressing SARS-CoV PLpro, growth rescue; control for the full effect not named in the record; note: 0% is about no effect; nearly all actives have a fitted effect of over 55% in size; growth read by luminescence after 48 h
Cruzain noTriton – cruzain (T. cruzi) inhibition without detergent | Potency, µM, for the others: max response, negative = inhibition, actives largely listed as inhibitors | 2.3% of 200,000 active | P25779 | purified cruzain, Z-FR-AMC fluorescence, no detergent; active = well fitted curve in the direction sought with a large enough effect; inconclusive = small, poorly fitted or top-dose-only effect, or another doubt; inactive = no such curve, though single readings can be large; an effect the other way counts as inactive or inconclusive;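 note: plate controls were enzyme without inhibitor for no effect and buffer without enzyme for full effect; nearly all actives have a fitted effect of over 40% in size; top concentration of the series not given in the record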
Target sequence (P25779 123-467 limits assumed): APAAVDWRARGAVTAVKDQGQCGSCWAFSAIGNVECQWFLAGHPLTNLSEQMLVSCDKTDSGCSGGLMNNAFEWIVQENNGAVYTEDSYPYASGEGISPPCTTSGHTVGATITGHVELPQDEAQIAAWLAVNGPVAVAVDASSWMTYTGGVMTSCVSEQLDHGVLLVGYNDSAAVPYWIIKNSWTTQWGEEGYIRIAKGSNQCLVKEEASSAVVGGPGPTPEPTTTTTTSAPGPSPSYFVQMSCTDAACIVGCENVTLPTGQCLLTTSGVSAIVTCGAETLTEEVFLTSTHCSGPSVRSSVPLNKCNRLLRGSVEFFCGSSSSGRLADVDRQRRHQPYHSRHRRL
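Detergent-free condition (0.00005% Triton X-100) in acetate buffer pH 5.5 with DTT. 1.5 nM enzyme and compound were pre-mixed 15 min, then 2 uM Z-FR-AMC substrate added; reaction progress from fluorescence change between first and third reads (60 s).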
2A StopGo – lowers the luciferase signal of an FMDV 2A StopGo reporter | human cells with a luciferase reporter of 2A StopGo recoding; control for the full effect not named in the record | Potency, µM (top dose mostly 57.9 µM), for inactives: at the top dose signal change, negative = less light | 1.2% of 410,000 active; active = well fitted falling curve with a large enough effect; inconclusive = small, poorly fitted or top-dose-only effect; inactive = no such curve, though single readings can be large or run the other way; tested in HEK293T cells; note: % is set by controls: 0 for no effect and ±100 for the full control effect; nearly all actives have a fitted effect of over 45% in size; luciferase light after 4 h
Cruzain Triton – blocks cruzain activity in presence of Triton detergent; purified cruzain, Z-FR-AMC fluorescence, 0.01% Triton; 0.43% of 200,000 active; Potency, µM, without a hit: max response, negative = inhibition, most hits filed as inhibitors; P25779; active = well fitted curve in the direction sought with a large enough effect; inconclusive = small, poorly fitted or top-dose-only effect, or another doubt; inactive = no such curve, though single readings can be large; an effect the other way counts as inactive or inconclusive;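 note: plate controls were neutral wells for no effect and buffer without enzyme for full effect; nearly all actives have a fitted effect of over 40% in size; top concentration of the series not given in the record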
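Read-out: AMC fluorescence (360 nm excitation, 450 nm emission), four reads over 2 min, first-to-third difference used. Conditions: cruzain 1.5 nM, Z-FR-AMC 2 uM, pH 5.5 acetate, 5 mM DTT, 0.01% Triton X-100.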
RE007 growth inh – less growth of the S. pombe RE007 Vpr strain; AID 651644; 0.21% of 360,000 active; Potency, µM (series often up to 92.2 µM), inactives show at the top dose activity change, negative = less growth; S. pombe RE007 Vpr strain, BacTiter-Glo ATP luminescence, 24 h; control for the full effect not named in the record; active = well fitted falling curve with a large enough effect; inconclusive = small, poorly fitted or top-dose-only effect; inactive = no such curve, though single readings can be large or run the other way;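 note: % is set by controls: 0 for no effect and ±100 for the full control effect; nearly all actives have a fitted effect of over 50% in size; the assay follows cell death caused by Vpr and the record does not say whether a fall means rescue or toxicity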
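Fission yeast strain RE007, carrying one chromosomally integrated HIV-1 vpr copy, was seeded at OD 0.01 in PMG+AL medium with 23 nL pinned compound. After 24 h at 30 °C and 99% humidity, viability was read by BacTiter-Glo luminescence.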
Starred values were filed as active, the others as inactive; ? = inconclusive; nt = not tested or not shown; [ ] = remark or other dose. Unless noted, calls come from the whole dose curve; as a rule, active means well fitted rising curve with a large enough effect; inconclusive means small, poorly fitted or top-dose-only effect; inactive means no such curve, though single readings can be large or run the other way. Potency is the fitted concentration of half-maximal effect.

SMILES	NS1 inh	Lassa entry inh	MARV entry inh	SARS PLpro yeast	Cruzain noTriton	2A StopGo	Cruzain Triton	RE007 growth inh
COc1cc(-c2nnco2)cc(OC)c1OC	0.5%	-8.2%[46.1 µM]	-4.2%[46.1 µM]	0.7%	nt	4.4%	nt	5.7%
Cc1ccc2nc(/C(C#N)=C/c3ccc(-c4cccc(Cl)c4)o3)[nH]c2c1	nt	-4.3%[46.1 µM]	nt	nt	12.6µM*	?	?	nt
COc1ccccc1CC(=O)Nc1ccc(-c2noc(COc3ccc(Br)cc3)n2)cc1	5.1%	?	?	-8.4%	?	0.0%	2.1%	4.6%
COc1ccc(C(CNCC(=O)Nc2ccccc2F)N(C)C)cc1 (stereo not drawn)	-1.3%	nt	nt	0.8%	nt	-26.0%	nt	5.3%
Cc1ccc(C(=O)C(=O)c2ccc(C)c(N)c2)cc1N	1.1%	-1.0%	2.0%[46.1 µM]	0.1%	nt	25.5%	nt	4.3%
Clc1nc(-c2ccccc2)cc(-c2ccc(Br)cc2)n1	nt	10.7%	-7.0%	nt	nt	-13.6%	nt	-3.3%
O=C(COC(=O)CCC(=O)c1ccc(F)cc1)Nc1ccc(F)cc1F	nt	8.9%	?	1.5%	nt	-3.1%	nt	-1.3%
O=C(NC(c1ccccc1)c1ccccc1)C1(c2cccs2)CCOCC1	7.8%	-2.3%	8.4%	1.6%	-3.8%	-10.1%	0.8%	15.1%
C=CCOCCN(C)C1=NS(=O)(=O)c2ccccc21	8.3%	?	0.9%[46.1 µM]	1.0%	nt	-3.0%	nt	-1.7%
O=C(COC(=O)c1ccccc1O)Nc1ccc(OC(F)F)cc1	-5.0%	1.9%	2.2%	-3.0%	-22.9%	41.5%[activator]	-3.6%	-0.6%
Cc1cc(-c2onc3ccc(Cl)cc23)ccc1O	20.2%	8.5%	2.5%[46.1 µM]	-2.6%	nt	21.4%	nt	-1.2%
CCOC(=O)c1c(NC(=O)CSc2nc3ccccc3s2)sc(C)c1C	1.8%	?	?	-0.2%	-25.8%	-13.2%	0.1%	10.2%
COc1ccc(C(=O)NC2CC(C)(C)NC(C)(C)C2)cc1OC	?	7.1%	-26.1%	3.6%	nt	-2.0%	nt	-9.9%
O=C(Cn1c(=O)[nH]n(-c2ccccc2)c1=O)N1CCCc2ccccc21	7.5%	2.3%	?	3.3%	-12.9%	1.0%	1.8%	-7.3%
Cc1ccccc1NC(=O)CSc1nnc(-c2cccs2)o1	nt	4.4%[46.1 µM]	24.2%[46.1 µM]	nt	1.9%	-6.5%	-2.4%	nt
O=C(NC(=S)Nc1ccc(NC(=O)c2cccs2)cc1)c1ccco1	15.5%	8.4%	7.6%	-15.4%	1.8%	0.0%	-10.1%	21.9%
CCCCN(C)CCCNC(=O)Cn1ncc2c3ccccc3n(Cc3ccccc3)c2c1=O	nt	?	?	nt	15.3%	-12.4%	4.6%	nt
C=CCOC(=O)C1=C[C@@H](c2ccccc2)[C@H](CCCO)[C@@H](OCC)O1	1.6%	nt	nt	0.9%	nt	-6.4%	nt	5.3%
CCc1c(O)nc(SCC(=O)Nc2cc(C)on2)n(-c2ccccc2)c1=O	5.4%	-0.2%	17.5%	-4.0%	nt	-23.1%	nt	-0.9%
Brc1c(C[n+]2ccccc2)nc2ccccn12	5.4%	-12.6%[46.1 µM]	-0.5%[46.1 µM]	6.4%	nt	-14.0%	nt	-11.6%
O=S(=O)(Nc1cccc(C(F)(F)F)c1)c1ccc(NS(=O)(=O)c2ccc3c(c2)OCCO3)cc1	nt	-24.5%[46.1 µM]	-3.2%[46.1 µM]	nt	7.3%	44.6%[activator]	-13.2%	nt
Cc1ccc(S(=O)(=O)N(C)CCCC(=O)NC(C)(C)CO)cc1	3.7%	20.5%[46.1 µM]	-1.9%	1.2%	nt	-10.9%	nt	-9.5%
COc1ccc(CCCc2nnc(SCC(=O)Nc3ccc(C)cc3C)o2)cc1	nt	-5.1%[46.1 µM]	-4.8%[46.1 µM]	nt	8.3%	-19.7%	-5.9%	nt
COc1cc(Cl)c(C)cc1NC(=O)Cn1ncc2c1-c1cc(C)ccc1OC2	nt	nt	12.1%[46.1 µM]	nt	-2.7%	-14.1%	-0.5%	nt
CC(C)C[C@H](NC(=O)c1nc[nH]c1C(=O)NCC(=O)OC(C)(C)C)C(=O)OC(C)(C)C	1.2%	nt	nt	0.1%	nt	-18.1%	nt	2.7%
CCOc1ccccc1NC(=O)CSc1nnc2[nH]c(=O)cc(C)n12	nt	2.5%[46.1 µM]	nt	nt	9.9%	-4.6%	-0.7%	nt
O=c1c(Cc2ccc(Cl)cc2)c(O)ccn1Cc1cccc(Cl)c1	22.2%	6.6%	-0.9%	1.5%	-2.4%	-19.5%	0.1%	-6.3%
COc1ccccc1NC(=O)NC1CC(=O)N(c2ccc3c(c2)OCCO3)C1 (stereo not drawn)	nt	6.2%	2.5%	-6.4%	nt	-19.7%	nt	7.0%
CCOC(=O)N1CCN(C(=O)CSc2nnc(-c3cccc(Cl)c3)o2)CC1	?	nt	nt	6.9%	-1.3%	-16.9%	-2.2%	3.4%
COc1cc(/C=N/N=C2/NC(=O)C(CC(=O)O)S2)ccc1OCc1cccc(Cl)c1 (stereo not drawn)	10.4%	26.4%[46.1 µM]	?	-0.7%	nt	15.5%	nt	-7.4%

Six entries from above, sorted by count of non-hydrogen atoms, low to high.
SMILES	NS1 inh	Lassa entry inh	MARV entry inh	SARS PLpro yeast	Cruzain noTriton	2A StopGo	Cruzain Triton	RE007 growth inh
Brc1c(C[n+]2ccccc2)nc2ccccn12	5.4%	-12.6%[46.1 µM]	-0.5%[46.1 µM]	6.4%	nt	-14.0%	nt	-11.6%
Cc1ccc(S(=O)(=O)N(C)CCCC(=O)NC(C)(C)CO)cc1	3.7%	20.5%[46.1 µM]	-1.9%	1.2%	nt	-10.9%	nt	-9.5%
O=c1c(Cc2ccc(Cl)cc2)c(O)ccn1Cc1cccc(Cl)c1	22.2%	6.6%	-0.9%	1.5%	-2.4%	-19.5%	0.1%	-6.3%
O=C(NC(=S)Nc1ccc(NC(=O)c2cccs2)cc1)c1ccco1	15.5%	8.4%	7.6%	-15.4%	1.8%	0.0%	-10.1%	21.9%
CCOC(=O)N1CCN(C(=O)CSc2nnc(-c3cccc(Cl)c3)o2)CC1	?	nt	nt	6.9%	-1.3%	-16.9%	-2.2%	3.4%
COc1ccccc1NC(=O)NC1CC(=O)N(c2ccc3c(c2)OCCO3)C1 (stereo not drawn)	nt	6.2%	2.5%	-6.4%	nt	-19.7%	nt	7.0%

(cont.)
SMILES	NS1 inh	Lassa entry inh	MARV entry inh	SARS PLpro yeast	Cruzain noTriton	2A StopGo	Cruzain Triton	RE007 growth inh
CCc1ccccc1N=C1S/C(=C/c2ccccc2OCC(=O)N2CCOCC2)C(=O)N1C	9.1%	14.6µM*	-29.3%	5.3%	?	?	-7.1%	-3.0%
CCC1CN(C(=O)N2CCC(C(=O)NCc3cc(OC)ccc3OC)CC2)c2ccccc2O1 (stereo not drawn)	nt	-3.5%[46.1 µM]	nt	nt	-0.7%	?	-2.0%	nt
NC(=O)CC[C@@H]1NC(=O)[C@H](CO)NC(=O)c2cc([N+](=O)[O-])cc(I)c2NCCC[C@@H](C(N)=O)NC(=O)[C@H](Cc2ccc(O)cc2)NC1=O	6.0%	0.7%	8.1%	21.7%	?	-10.2%	-5.3%	-17.2%
C/C=C/C(=O)N1c2ccc(C)cc2C(C)=CC1(C)C	-53.0%	nt	nt	1.3%	nt	-19.8%	nt	-6.2%
NC(=O)CSc1nnc(-c2cc(-c3cccs3)nc3ccccc23)o1	0.8%	-24.6%	-19.4%	2.1%	-18.0%	-12.0%	-10.2%	6.0%
CCN(c1ccc(OC)cc1)S(=O)(=O)c1csc(C(=O)N2CCCC2)c1	-8.7%	nt	nt	-1.7%	nt	-18.8%	nt	0.4%
COc1cc(C2N(c3cccc(Cl)c3)C(=O)C3CCCN32)cc(OC)c1OC (stereo not drawn)	3.4%	nt	nt	1.9%	22.4%	6.1%	0.4%	15.4%
Cc1cccc(C)c1NC(=O)CCCCCNS(=O)(=O)c1ccccc1	nt	?	nt	1.4%	nt	-15.6%	nt	-10.0%
COc1ccc(-c2cc3ccccc3n2CC(O)CNC(CO)(CO)CO)cc1 (stereo not drawn)	8.1%	-0.3%	?	-4.5%	5.0%	-15.6%	2.9%	5.0%
C=CCn1c(SCC(=O)N(C)C)nc2cc(C(=O)O)ccc2c1=O	1.6%	nt	nt	1.8%	nt	-6.9%	nt	0.9%
CCC(=O)C1CCCN(C(=O)c2ccc3nc(-c4cccc(OC)c4)oc3c2)C1 (stereo not drawn)	0.7%	nt	nt	-0.7%	nt	3.9%	nt	1.0%
CCCNC(=O)c1ccc(COc2ccc(C(C)(C)C)cc2)o1	-6.4%	?	?	-5.9%	nt	-13.6%	nt	0.0%
CN(C(=O)c1cc2ccccc2oc1=O)C1(C)CCS(=O)(=O)C1 (stereo not drawn)	nt	1.6%[46.1 µM]	13.1%[46.1 µM]	0.4%	nt	0.1%	nt	4.7%
Cc1ccc(-n2c(SCC3CCCCO3)nnc2-c2ccco2)cc1 (stereo not drawn)	-13.1%	-1.7%	3.1%	-3.0%	2.3%	-12.0%	2.0%	-4.4%
O=C(CCCN1CCC(O)(c2cccc(C(F)(F)F)c2)CC1)c1ccc(F)cc1	-12.5%	?	11.2µM*	nt	6.6%	-19.8%	7.6%	-6.5%[18.4 µM]
O=C(COC(=O)c1cc(S(=O)(=O)N2CCOCC2)ccc1F)c1ccc[nH]1	6.1%	-7.9%	3.3%	22.2%	10.0%	-7.3%	-2.3%	2.5%
COc1ccc(OC)c(NC(=S)NN2CCOCC2)c1	12.1%	3.9%	1.9%	6.6%	6.7%	23.3%	1.5%	-0.4%
COc1ccc(Nc2nc(N)nc(CSC(=S)N3CCN(C)CC3)n2)cc1	1.7%	nt	nt	0.4%	nt	42.6%[activator]	nt	-6.0%
